# Assay outcomes from PubChem BioAssay.
# SmPrx2 inh = inhibitors of Schistosoma mansoni peroxiredoxin 2; S. mansoni Prx2 activity coupled to TGR/GSH (TGR is thioredoxin glutathione reductase), NADPH fluorescence loss, qHTS; some inactives read as strong as hits; Potency, µM; 0.07% of 65,000 active; active means full or partial inhibition curve with a strong effect at the top dose; inconclusive means weaker partial or single-point curve; inactive means no accepted curve; further: series up to 57 µM; many of its hits are not listed in these tables
#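 Prx2 activity was followed as the loss of NADPH fluorescence (ex 365/em 450 nm), read every 30 sec for 8 min after H2O2 start. The enzyme mix (50 nM Prx2, 25 nM TGR, GSH, NADPH; pH 7.4 phosphate buffer) was incubated with compound for 15 min at room temperature first.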
# Anthrax LT inh = anthrax lethal toxin internalization inhibition; Cells, anthrax lethal toxin internalization, FRET ratio (460/530); Potency, µM (doses to about 40 µM), for the others: at the top dose activity change, negative = inhibition, hits mostly inhibitors; 0.67% of 70,000 active; AID 912; active = well fitted falling ratio curve with the 530 nm signal flat; inconclusive = other ratio curves, or a change in one channel alone; inactive = flat curves in the ratio and both channels; the % refers to the ratio; further: on the % scale 0 is the no-effect control and ±100 the full control effect; nearly all actives have a fitted effect of over 50% in size; tested in ME-180 cells; beta-lactamase reporter
# * hit, by the source's call; ? = inconclusive; . = not tested or not shown; [ ] = another dose, or the depositor's remark. Potency means the concentration at half of the fitted maximal effect. These rows are one share of the data; rates above refer to the full screens.
nr	Molecule	SmPrx2 inh	Anthrax LT inh
1	CCS(=O)(=O)n1nc(-c2ccccc2)nc1NCc1ccco1	>57	-12%
2	CCC(c1nnnn1CCc1ccccc1)N1CCN(c2ccc(OC)cc2)CC1 (centres undefined)	>57	-19%
3	Cc1cc(C(F)F)n2nc(C(=O)Nc3ccc(S(=O)(=O)N4CCCCCC4)cc3)nc2n1	>57	?
4	O=C(NCC1CCCO1)c1nn2c(c1Cl)NC(c1ccc(F)cc1)CC2C(F)(F)F (centres undefined)	>57	8%
5	CNC(=O)C1=NCCCc2cc(OC)c(OC)cc21	.	8%
6	CN1C(=S)SC(/[N+]([O-])=C/c2cccnc2)C1(C)C (centres undefined)	>57	-3%
7	Cc1cc(C)c2ccc(N)nc2c1O	>57	3%
8	COCCn1c(COC)nc2ccccc21	>57	14%
9	C[C@@]12CC[C@H](O)C[C@@H]1CC[C@H]1[C@H]2CC[C@@]2(C)[C@@H](C3=CC(=O)OC3)CC[C@]12O	>57	?
10	CCn1c(COc2ccc(Cl)cc2)nnc1SCC(=O)Nc1ccc2c(c1)OCO2	>57	-6%
11	COC(=O)c1cn[nH]c1N	>57	-8%
12	CCOC(=O)c1ccccc1NC(=O)CN(c1cccc(OC)c1)S(C)(=O)=O	.	-5%
13	COc1ccc(OCC(=O)N2CCN(C(=O)c3ccccc3)CC2)cc1	.	-7%
14	COC(=O)c1ccc(NC(=O)c2cccc(OC)c2)cc1	.	-26%
15	CCc1ccc(OCC(=O)N(C)C)c(Br)c1	>57	?

# 4 entries from above, with each value named:
4: O=C(NCC1CCCO1)c1nn2c(c1Cl)NC(c1ccc(F)cc1)CC2C(F)(F)F (centres undefined)
  SmPrx2 inh: >57
  Anthrax LT inh: 8%

13: COc1ccc(OCC(=O)N2CCN(C(=O)c3ccccc3)CC2)cc1
  SmPrx2 inh: .
  Anthrax LT inh: -7%

10: CCn1c(COc2ccc(Cl)cc2)nnc1SCC(=O)Nc1ccc2c(c1)OCO2
  SmPrx2 inh: >57
  Anthrax LT inh: -6%

15: CCc1ccc(OCC(=O)N(C)C)c(Br)c1
  SmPrx2 inh: >57
  Anthrax LT inh: ?

# Given with values under each structure: part of the list above.
# The line under a structure holds: SmPrx2 inh	Anthrax LT inh
7) Cc1cc(C)c2ccc(N)nc2c1O
  >57	3%
3) Cc1cc(C(F)F)n2nc(C(=O)Nc3ccc(S(=O)(=O)N4CCCCCC4)cc3)nc2n1
  >57	?
10) CCn1c(COc2ccc(Cl)cc2)nnc1SCC(=O)Nc1ccc2c(c1)OCO2
  >57	-6%
4) O=C(NCC1CCCO1)c1nn2c(c1Cl)NC(c1ccc(F)cc1)CC2C(F)(F)F (centres undefined)
  >57	8%
11) COC(=O)c1cn[nH]c1N
  >57	-8%
9) C[C@@]12CC[C@H](O)C[C@@H]1CC[C@H]1[C@H]2CC[C@@]2(C)[C@@H](C3=CC(=O)OC3)CC[C@]12O
  >57	?

# Remaining list, next part
nr	Molecule	SmPrx2 inh	Anthrax LT inh
16	O=C(c1ccc2c(c1)OCO2)N(c1ccc(Cl)cc1)C1C=CS(=O)(=O)C1 (centres undefined)	>57	8%
17	Cc1nn(-c2ccc(F)cc2)c(C)c1NS(=O)(=O)c1ccc(Cl)cc1	>57	-6%
18	C=CCn1c(SCCCC)nc(O)cc1=O	>57	-3%
19	CCOc1cc(-c2nc3c(C)cccn3c2NCC2CCCO2)ccc1O (centres undefined)	>57	19%
20	CN1CCN(S(=O)(=O)c2ccc(NC(=O)c3csc4ccccc34)cc2)CC1	>57	-10%
21	NC(=O)c1c(NC(=O)CSc2nnc(-c3ccco3)n2-c2ccccc2)sc2c1CCC2	>57	-21%
22	Cc1nn(-c2ccccc2)c2c1C1(C(=O)N(C(C)C)c3ccccc31)C(C#N)=C(N)O2 (centres undefined)	>57	-12%
23	C[N+](C)(C)CCCCCNCC12CC3CC(CC(C3)C1)C2	>57	-4%
24	O=C(Cn1cccc1)N1CCN(c2ccc(F)cc2)CC1	>57	6%
25	O=C(NC(=O)N1CCN(c2ccccc2F)CC1)c1ccccc1	>57	-6%
26	Cc1ccccc1-c1cncnc1NCc1cccnc1	?	-12%
27	COc1ccccc1O	.	?
28	O=C(CSc1nnc(CN2CCOCC2)n1-c1ccc(Cl)cc1)N1CCc2ccccc21	>57	6%
29	CCN1CCN(c2cc(C)c3cc(NC(=O)c4ccncc4)ccc3n2)CC1	>57	-12%
30	Cc1noc(C)c1C(=O)N1CCc2ccccc21	>57	9%

# Other results follow.
nr	Molecule	SmPrx2 inh	Anthrax LT inh
31	O=C(NC1CCCC1)C(c1cccs1)N(CC1CCCO1)C(=O)Cc1cccs1 (centres undefined)	>57	27%
32	COC(=O)c1cc2occc2n1CC(=O)Nc1cc(OC)cc(OC)c1	>57	-5%
33	COc1cc(OC)c(C2SCCN2S(=O)(=O)c2ccc(F)cc2)cc1OC (centres undefined)	>57	-8%
34	O=C(Nc1ccc(Cl)c(C(F)(F)F)c1)N1CCCC(O)C1 (centres undefined)	>57	16%
35	CCOC(=O)C1=C(C)NC(=O)C(C(N)=O)C1c1ccccc1 (centres undefined)	>57	16%
36	CC1(C)NC(=O)N(CCCOc2ccc3c(c2)CCC3)C1=O	>57	-7%
37	Cc1ccc(NC(=O)N2CCC(C(N)=O)CC2)cc1	>57	-7%
38	CCOCCCNC(=O)CS(=O)(=O)Cc1nc(-c2cccc(OC)c2)oc1C	>57	5%
39	CCCCc1ccc(-c2ccc(C)cc2O)nc1	>57	-6%
40	COc1ccc2c(c1)[nH]c1c(=O)n(CCN3CCCC3)cnc12	>57	-4%
41	Cc1ccc(S(=O)(=O)NC(=O)Nc2c(C)n(C)n(-c3ccccc3)c2=O)cc1	>57	-5%
42	O=C(Cn1c(-c2ccccc2)noc1=O)Nc1ccc(S(=O)(=O)N2CCOCC2)cc1	>57	-5%
43	CCOC(=O)C1CCCN(c2ncnc3c2cnn3-c2ccc(OC)cc2)C1 (centres undefined)	>57	16%
44	N#Cc1nc(COc2ccccc2)oc1NCCN1CCOCC1	>57	-7%
45	O=C(NCc1ccc2c(c1)OCO2)C1CCCN1C(=O)Nc1cccc(Cl)c1 (centres undefined)	>57	14%

# (continued)
nr	Molecule	SmPrx2 inh	Anthrax LT inh
46	CC1CCN(C(=O)CSc2nc3cccnc3n2C)CC1	>57	-8%
47	CCc1nc(NCc2ccccn2)c2oc3ccccc3c2n1	>57	8%
48	COc1ccc2nc(Nc3nc(C)c(CCC(C)C)c(=O)[nH]3)nc(C)c2c1	>57	12%
49	COc1c2ccoc2nc2c(OC)c(OCC(O)C(C)(C)O)ccc12 (centres undefined)	>57	10%
50	CCC(=O)O[C@@]1(C(=O)CCl)[C@@H](C)C[C@@H]2[C@H]3CCC4=CC(=O)C=C[C@@]4(C)[C@]3(F)[C@@H](O)C[C@@]21C	>26	-2%[3.58 µM]
51	Cc1ccc(-c2nnc(Nc3ccccc3)o2)cc1	>57	3%
52	O=C(CN1C(=O)c2ccccc2S1(=O)=O)NC1CC2CCC1C2 (centres undefined)	>57	-8%
53	COc1ccc(S(=O)(=O)Nc2ccc3c(c2)COC3=O)cc1OC	>57	18%
54	CC(=O)N1CCc2cc(S(=O)(=O)NCCCN3CCN(Cc4ccccc4)CC3)ccc21	>57	6%
55	Cc1cc(Nc2ccc(C)c(C)c2)n2nc(C)nc2n1	>57	4%
56	O=C(Cn1nnc(-c2ccccc2)n1)NCc1cccs1	>57	0%
57	CC(c1ccco1)N(C(=O)Nc1ccc(Cl)cc1)c1ccccn1 (centres undefined)	>57	7%
58	CCOC(=O)C1=C(C)NC(=O)NC1c1ccc(OC)c(CN2CCOCC2)c1 (centres undefined)	>57	-14%
59	Oc1ccc(N2CCN(C(c3cccnc3)c3nnnn3Cc3ccccc3)CC2)cc1 (centres undefined)	>57	-3%
60	CC(C)=C1C2C=CC1C1C(=O)N(c3ccc4c(c3)OCO4)C(=O)C21 (centres undefined)	>57	-14%

# (listing goes on)
nr	Molecule	SmPrx2 inh	Anthrax LT inh
61	CCCCNC(=O)CCC(=O)Nc1ncc(-c2ccc(C)cc2)n1C	>57	4%
62	CC(C)OC(=O)CSc1nnc(-c2ccc(Cl)cc2Cl)o1	>57	-14%
63	CC(=O)c1sc(Nc2nc3ccc(F)cc3s2)nc1C	>57	?
64	CCCCCn1c(SCCc2ccccc2)nc2c1c(=O)[nH]c(=O)n2C	>57	-5%
65	COc1nc(OC)nc(N2CCC(C(=O)NCc3cccs3)CC2)n1	>57	-8%
66	O=S(=O)(NCCc1ccccn1)c1ccc(F)c(F)c1	>57	4%
67	O=C(CON1C(=O)c2ccccc2C1=O)c1ccccc1	>57	-8%[8 µM]
68	O=C(CSc1nnc2scc(-c3ccccc3)n12)NCC1CCCO1 (centres undefined)	>57	14%
69	CC(NC(=O)c1ccco1)C(=O)Nc1nc(-c2ccccn2)cs1 (centres undefined)	>57	10%
70	O=C1C(=O)N(CCCn2ccnc2)C(c2cccnc2)/C1=C(/O)c1ccccc1 (centres undefined)	.	-7%
71	COCCCN1C(=O)C(=O)/C(=C(/O)c2ccccc2)C1c1ccc(N(C)C)cc1 (centres undefined)	>57	-3%
72	Cn1c(=O)c2c(nc(Oc3ccc(-c4ccccc4)cc3)n2C)n(C)c1=O	>57	?
73	O=C(CSCc1ccc(Br)cc1)N1CCOCC1	>57	-7%
74	CN[C@@H](CC(C)C)C(=O)N[C@@H]1C(=O)N[C@H](CC(N)=O)C(=O)N[C@H]2C(=O)N[C@H]3C(=O)N[C@H](C(=O)N[C@H](C(=O)O)c4cc(O)cc(O)c4-c4cc3ccc4O)[C@H](O)c3ccc(c(Cl)c3)Oc3cc2cc(c3O[C@@H]2O[C@@H](CO)[C@@H](O)[C@@H](O)[C@H]2O[C@H]2C[C@](C)(N)[C@H](O)[C@H](C)O2)Oc2ccc(cc2Cl)[C@@H]1O	>57	1%
75	COc1ccc(-c2nn3c(-c4ccc(F)cc4)nnc3s2)cc1	>57	-7%

# More compounds:
nr	Molecule	SmPrx2 inh	Anthrax LT inh
76	CCOC(=O)c1cc2c(=O)n3cccc(C)c3nc2n(CC2CCCO2)c1=NC(C)=O (centres undefined)	>57	.
77	Cn1cnnc1SCC(=O)c1c[nH]c2ccccc12	>57	2%
78	CCOCCCN(C(=O)c1ccco1)C(C(=O)NC1CCCC1)c1cccc(OC)c1OC (centres undefined)	>57	?
79	NCC[C@H]1CCC[C@H](CCN)N1	>57	10%
80	COc1ccc(CN2CCCCC2C)c(C)c1C (centres undefined)	.	-12%
81	O=C(COC(=O)c1cccc(NC(=O)c2ccco2)c1)c1ccc(Br)cc1	>57	13µM*
82	CC(C)(C)c1ccc(OC2C(O)COC2/C=C/C#Cc2ccccc2)cc1 (centres undefined)	.	?
83	COc1ccc(OC)c(C(c2nnnn2Cc2ccccc2)N2CCC(C(N)=O)CC2)c1 (centres undefined)	>57	23%
84	CCCCC(=O)Nc1ccc(Br)cc1C(=O)O	>57	-9%
85	Cc1cc(C)cc(N(CC(=O)N2CCN(Cc3ccccc3)CC2)S(=O)(=O)c2c(C)noc2C)c1	>57	-1%
86	CCOC(=O)N1CCN(c2c(N3CCc4ccccc43)c(=O)c2=O)CC1	.	?
87	OC(c1cccc(OCc2ccccc2)c1)c1nnc(-c2ccccc2)o1 (centres undefined)	>57	1%
88	CC(=O)Nc1cccc(-c2nnc3n2CC(C)S3)c1 (centres undefined)	>57	5%
89	O=C(CC(c1ccccc1)c1ccccc1)Nc1ncn[nH]1	.	-3%
90	COc1cc2c(=O)n(Cc3ccccc3)c(=O)n(CC(=O)NCc3ccco3)c2cc1OC	>57	-2%

# (continued)
nr	Molecule	SmPrx2 inh	Anthrax LT inh
91	CCn1cc(C(=O)N2CCCC2)c(=O)c2cc(S(=O)(=O)N3CCOCC3)ccc21	>57	-4%
92	Nc1c2c(nc3ccccc13)CCC2	>57	-1%
93	Cc1onc(-c2c(F)cccc2Cl)c1C(=O)NCCCN1CCOCC1	>57	3%
94	CCOC(=O)CC(=O)CSc1ncnc2c1oc1ccccc12	>57	-10%
95	CCOC(=O)c1nnsc1NC(C)=O	>57	4%
96	Cc1sc2ncn(CC(=O)NCCCC(=O)N3CCN(c4ccccn4)CC3)c(=O)c2c1C	>57	3%
97	CN1CCN(c2nc(-c3ccccc3)c3cc(Cl)ccc3n2)CC1	>57	?
98	O=C1CC(Nc2ccc(N3CCOCC3)cc2)C(=O)N1Cc1ccccc1 (centres undefined)	>57	-8%
99	CC(C)c1cc(C(=O)Nc2sc3c(c2C#N)CCC3)no1	>57	-11%
100	COCCn1c(SCC(=O)Nc2cc(Cl)ccc2OC)nc2c(c1=O)SC(C)C2 (centres undefined)	>57	-7%
101	CC12CN3CCN(CC(C3)C1(O)CN1CCOCC1)C2 (centres undefined)	>57	?
102	Cc1cccc(NC(=O)c2cc(NC(=O)c3ccco3)ccc2Cl)n1	>57	-8%
103	Cc1nnc(NC(=O)CSc2nnc(Cc3ccccc3)n2-c2ccccc2)s1	>57	-11%
104	Cc1nc(COC(=O)c2c(C)nn(-c3ccccc3)c2C)cs1	>57	2%
105	Cc1ccc2oc(=O)c3cc(C(=O)NCCN4CCN(C)CC4)sc3c2c1	>57	-17%

# Additional results follow.
nr	Molecule	SmPrx2 inh	Anthrax LT inh
106	CCN1CCN(S(=O)(=O)c2ccc(S(=O)(=O)N(CC)Cc3ccccc3)cc2)CC1	>57	-13%
107	CCn1ncc(Br)c1C(=O)Nc1ccc(Cl)cn1	>57	-14%
108	CCOc1ccc2nc(N)sc2c1	.	4%
109	CC(C)c1nnc(NC(=O)CCCC(=O)O)s1	>57	-8%
110	O=c1c(-c2ccc(Cl)cc2)nc2cncnc2n1Cc1ccccc1	>57	-20%
